NS1 inh: influenza NS1 inhibition. S. cerevisiae slowed by influenza A NS1, growth recovery by OD600. Potency, µM (top dose mostly 46.1 µM), inactives show at the highest dose activity, positive = more growth. 270,000 compounds, 0.4% hits; note: actives are rising curves; nearly all actives have a fitted effect of over 50% in size
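A cell-based growth assay was used: compounds that relieve NS1-induced slow growth of budding yeast raise OD600. Assay medium was yeast nitrogen base with ammonium sulphate and -URA supplement, pH 6.0, with 2% galactose.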
Cruzain noTriton: cruzain (T. cruzi) inhibition without detergent. purified cruzain, Z-FR-AMC fluorescence, no detergent. Potency, µM, inactives show max response, negative = inhibition, usual class: inhibitors. 200,000 compounds, 2.3% hits. AID 1476; active = well fitted curve in the direction sought with a large enough effect; inconclusive = small, poorly fitted or top-dose-only effect, or another doubt; inactive = no such curve, though single readings can be large; an effect the other way counts as inactive or inconclusive;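 note: plate controls were enzyme without inhibitor for no effect and buffer without enzyme for full effect; nearly all actives have a fitted effect of over 40% in size; top concentration of the series not given in the record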
Target sequence (P25779 123-467 limits assumed): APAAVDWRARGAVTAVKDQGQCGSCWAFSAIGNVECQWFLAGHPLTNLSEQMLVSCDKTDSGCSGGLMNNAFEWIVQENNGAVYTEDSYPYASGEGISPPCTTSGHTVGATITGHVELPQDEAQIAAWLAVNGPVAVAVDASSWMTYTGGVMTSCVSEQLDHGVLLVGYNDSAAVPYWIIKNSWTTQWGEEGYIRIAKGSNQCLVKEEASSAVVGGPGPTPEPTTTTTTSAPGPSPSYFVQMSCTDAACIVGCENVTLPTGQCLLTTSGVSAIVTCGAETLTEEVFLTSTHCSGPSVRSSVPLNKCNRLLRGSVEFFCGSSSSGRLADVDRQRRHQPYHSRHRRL
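Detergent-free condition (0.00005% Triton X-100) in acetate buffer pH 5.5 with DTT. 1.5 nM enzyme and compound were pre-mixed 15 min, then 2 uM Z-FR-AMC substrate added; reaction progress from fluorescence change between first and third reads (60 s).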
Cruzain Triton: blocks cruzain activity in presence of Triton detergent; P25779; purified cruzain, Z-FR-AMC fluorescence, 0.01% Triton; Potency, µM, for inactives: max response, negative = inhibition, most hits filed as inhibitors; 200,000 compounds, 0.43% hits; AID 1478; active = well fitted curve in the direction sought with a large enough effect; inconclusive = small, poorly fitted or top-dose-only effect, or another doubt; inactive = no such curve, though single readings can be large; an effect the other way counts as inactive or inconclusive;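 note: plate controls were neutral wells for no effect and buffer without enzyme for full effect; nearly all actives have a fitted effect of over 40% in size; top concentration of the series not given in the record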
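In this qHTS format, compounds are incubated with 1.5 nM cruzain for 15 min at room temperature before 2 uM Z-FR-AMC is added. Release of AMC is followed at 360/450 nm, and progress is taken as the 60 s fluorescence difference.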
LASV entry inh: Lassa virus entry inhibition | Lassa virus pseudotype entry inhibition, cell reporter; control for the full effect not named in the record | Potency, µM (series often up to 37.9 µM), without a hit: at the highest dose activity change, negative = inhibition, actives largely listed as inhibitors | 300,000 compounds, 1.2% hits | AID 540256; active means well fitted inhibition curve with a large enough effect; inconclusive means small, poorly fitted or top-dose-only effect, or effect the other way; inactive means flat fitted curve, though single readings scatter; tested in HEK293 cells; note: % is set by controls: 0 for no effect and ±100 for the full control effect; nearly all actives have a fitted effect of over 50% in size; luciferase read-out
Marburg entry inh: blocks Marburg virus binding to or entry into cells | Marburg virus pseudotyped entry inhibition, cell reporter; control for the full effect not named in the record; about a third of the inactives were read at about 46 µM | Potency, µM (doses to about 37.8 µM), for inactives: top-dose activity change, negative = inhibition, usual class: inhibitors | 300,000 compounds, 1.8% hits | AID 540276; active = well fitted inhibition curve with a large enough effect; inconclusive = small, poorly fitted or top-dose-only effect, or effect the other way; inactive = flat fitted curve, though single readings scatter; tested in HEK293 cells; about a fifth of its hits are not listed in these tables; note: % is set by controls: 0 for no effect and ±100 for the full control effect; luciferase read-out
SARS PLP yeast: blocks SARS-CoV papain-like protease in a yeast assay. AID 485353. 330,000 compounds, 0.19% hits. Potency, µM (titrated, usually from 32.9 µM), for the others: at the top dose activity, positive = growth rescue. S. cerevisiae expressing SARS-CoV PLpro, growth rescue; control for the full effect not named in the record; note: 0% is about no effect; nearly all actives have a fitted effect of over 55% in size; growth read by luminescence after 48 h
2A StopGo: FMDV 2A StopGo reporter, luciferase signal | human cells with a luciferase reporter of 2A StopGo recoding; control for the full effect not named in the record | Potency, µM (titrated, usually from 57.9 µM), without a hit: top-dose signal change, negative = less light | 410,000 compounds, 1.2% hits; active = well fitted falling curve with a large enough effect; inconclusive = small, poorly fitted or top-dose-only effect; inactive = no such curve, though single readings can be large or run the other way; tested in HEK293T cells; note: % is set by controls: 0 for no effect and ±100 for the full control effect; nearly all actives have a fitted effect of over 45% in size; luciferase light after 4 h
RE007 growth inh: less growth of the S. pombe RE007 Vpr strain; S. pombe RE007 Vpr strain, BacTiter-Glo ATP luminescence, 24 h; control for the full effect not named in the record; 360,000 compounds, 0.21% hits; AID 651644; Potency, µM (titrated, usually from 92.2 µM), without a hit: at the highest dose activity change, negative = less growth; active = well fitted falling curve with a large enough effect; inconclusive = small, poorly fitted or top-dose-only effect; inactive = no such curve, though single readings can be large or run the other way;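 note: % is set by controls: 0 for no effect and ±100 for the full control effect; nearly all actives have a fitted effect of over 50% in size; the assay follows cell death caused by Vpr and the record does not say whether a fall means rescue or toxicity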
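Fission yeast strain RE007, carrying one chromosomally integrated HIV-1 vpr copy, was seeded at OD 0.01 in PMG+AL medium with 23 nL pinned compound. After 24 h at 30 °C and 99% humidity, viability was read by BacTiter-Glo luminescence.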
Numbers without * were called inactive; ? = inconclusive; . = not tested or not shown; & = joins results of further samples; [ ] = dose if it differs, or a comment. Unless noted, calls come from the whole dose curve; as a rule, active means well fitted rising curve with a large enough effect; inconclusive means small, poorly fitted or top-dose-only effect; inactive means no such curve, though single readings can be large or run the other way. Potency is the fitted concentration of half-maximal effect. Hits appear at their usual frequency. About 4.8% of those tested had a hit in this group.

smiles | NS1 inh | Cruzain noTriton | Cruzain Triton | LASV entry inh | Marburg entry inh | SARS PLP yeast | 2A StopGo | RE007 growth inh
COc1ccc2c(c1)c(C(=O)O)c(C)n2-c1ccc(Cl)cc1 | -11% | . | . | . | . | -3% | -16% | 1%
COc1ccc(Cl)cc1NC(=O)CSc1nnc(C)n2c1cc1sccc12 | . | 2% | -0.3% | -3%[46.1 µM] | . | . | -13% | .
C/C(=N\NC(=O)c1cc(-c2ccncc2)nc2ccccc12)c1ccc(OC(F)F)cc1 | . | . | . | 18% | -23%[46.1 µM] | 3% | -9% | -3%
O=C(COC(=O)CNS(=O)(=O)c1cccc(Br)c1)Nc1ccccc1Sc1ccccc1 | -37% | -2% | -29% | -1% | ? | -6% | -4% | -4%
Cc1ccc(S(=O)(=O)NCCc2nnc3ccc(SCc4ccc(F)cc4)nn23)cc1 | . | ? | -7.6% | ? | . | . | 18% | .
COc1cccc(-n2cnc3c(sc4nc(N5CCOCC5)c5c(c43)CCCC5)c2=O)c1 | . | . | . | -17% | 0%[46.1 µM] | 0% | ? | -6%
CCc1ccc(C(=O)c2cn(CC(=O)Nc3ccc(OC)cc3)c3cc4c(cc3c2=O)OCCO4)cc1 | . | -4% | -1.6% | 22%[46.1 µM] | 7%[46.1 µM] | . | ? | .
CN(C)c1ccc2c(c1)N=C(c1ccco1)OP2(=S)N1CCOCC1 (stereo not given) | -14% | -11% | -8.9% | 8% | 2% | ? | . | ?
COc1ccc(CCNC(=S)NC(=O)/C=C/c2ccc(C)cc2)cc1OC | -2% | . | . | -26% | ? | -3% | . | 6%
O=C(O)c1ccc(N2C(=O)CC(SC(=NCc3ccc4c(c3)OCO4)Nc3ccc(F)cc3)C2=O)cc1 (stereo not given) | . | . | . | -61% | . | 0% | ? | -9%
CC(C)CC(C(=O)Nc1oc(-c2ccco2)c(-c2ccco2)c1C#N)N1C(=O)c2ccccc2C1=O (stereo not given) | 10µM* | 32µM* | -22% | 6% | -1%&-4% | 6% | -10% | 17%
CCn1c(SCC(=O)Nc2ccccc2C(=O)OC)nnc1-c1ccoc1C | 5% | 8% | -0.1% | 12% | -28% | 3% | -12% | 23%
Cc1ccccc1N1CCN(C2CCCN(C(=O)CCN3CCCO3)C2)CC1 (stereo not given) | -3% | . | . | 2% | -2% | -2% | -12% | -7%
COc1ccc(-c2noc(CN(C(=O)c3ccccc3Cl)C(C)C)n2)cc1 | . | 9% | -6.4% | -27%[46.1 µM] | -2%[46.1 µM] | . | -13% | .
Cc1ccc2[nH]cc(/C=C/c3cc[n+](C)cc3)c2c1 | 5% | . | . | ? | 5µM* | -1% | -11% | ?
Cc1c(NC(=O)c2ccc(CN3CCc4ccccc4C3)cc2)c(=O)n(-c2ccccc2)n1C | 4% | -7% | 2.5% | ? | -11%&-11% | 3% | ? | -19%
CC(=O)C1=C(C)NC(=O)NC1/C=C/c1ccccc1 (stereo not given) | 3% | . | . | . | . | 0% | -6% | -4%
O=C1NC2CCCCC2C(=O)N1OS(=O)(=O)c1ccccc1 (stereo not given) | . | . | . | -12% | -15% | . | 0% | 1%
COc1cccc(N2CCN(C(=O)CCCCCn3c(=S)[nH]c4cc5c(cc4c3=O)OCO5)CC2)c1 | 14% | . | . | . | . | -5% | -29% | 25%
O=C(Nc1ccc(Cl)cc1)N1CCCC1 | -29% | -8% | 0.6% | ? | 13% | -22% | 0% | -27%
CCNC(=O)Nc1ccc(-n2nc(C)c(C(=O)OCC)c2C)nc1 | . | . | . | -19% | 2% | -1% | 17% | 1%
COc1ccc(OCC(=O)N(Cc2cccs2)C2CCS(=O)(=O)C2)cc1 (stereo not given) | -8% | . | . | . | . | 1% | -8% | 6%
N/C(=N\OC(=O)c1cccs1)c1cccnc1 | 6% | . | . | 5% | ? | -4% | 37%[activator] | -4%
C[n+]1ccccc1/C=C/c1ccc(C#N)cc1 | -1% | . | . | 6%[46.1 µM] | ? | -2% | 2% | -4%
Cc1ccc(-c2[nH]c(-c3ccc(Cl)cc3)nc2SCC(=O)NCC2CCCO2)cc1 (stereo not given) | 12% | -8% | -4.9% | 8% | 3% | 9% | -24% | 1%
CC1CN(CCOc2cccc(Oc3ccccc3)c2)CC(C)O1 (stereo not given) | -53% | . | . | . | . | -4% | 0% | -12%
COc1ccc(OC)c(S(=O)(=O)NCCc2ccccc2)c1 | -109% | -17% | 1.3% | ? | 1% | -3% | 104%[activator] | -2%
O=C(NCCSCc1cccc(Cl)c1)C1CCN(S(=O)(=O)Cc2ccccc2)CC1 | . | 1% | -2.4% | 16%[46.1 µM] | 10%[46.1 µM] | . | -1% | .
CCn1c(SC(C)C(=O)OC)nnc1-c1c[nH]c2ccccc12 (stereo not given) | -7% | -3% | 5.2% | . | . | 0% | -16% | 11%
COc1ccccc1NC(=O)CNC(=O)c1ccc([N+](=O)[O-])cc1 | 3% | . | . | . | . | -1% | -9% | 19%

Retrieved one by one from above:
smiles | NS1 inh | Cruzain noTriton | Cruzain Triton | LASV entry inh | Marburg entry inh | SARS PLP yeast | 2A StopGo | RE007 growth inh
CC1CN(CCOc2cccc(Oc3ccccc3)c2)CC(C)O1 (stereo not given) | -53% | . | . | . | . | -4% | 0% | -12%
CCc1ccc(C(=O)c2cn(CC(=O)Nc3ccc(OC)cc3)c3cc4c(cc3c2=O)OCCO4)cc1 | . | -4% | -1.6% | 22%[46.1 µM] | 7%[46.1 µM] | . | ? | .

New compounds follow.
smiles | NS1 inh | Cruzain noTriton | Cruzain Triton | LASV entry inh | Marburg entry inh | SARS PLP yeast | 2A StopGo | RE007 growth inh
COC(=O)c1c(NC(=O)Cc2cccs2)sc2c1CCC(C)C2 (stereo not given) | 4% | -17% | -12% | 7% | 1% | 0% | . | -6%
CCOc1ccc(NC(=O)c2ccc(NC(=O)c3ccc(NC(N)=O)cc3)cc2)cc1 | . | . | . | 8%[46.1 µM] | -4%[46.1 µM] | 30% | 1% | 15%
Cc1ccc(NS(=O)(=O)c2ccc(C)c(NC(=O)COc3ccc4ccccc4c3)c2)c(C)c1 | 11% | . | . | ? | 11µM* | 0% | 17% | 3%
Cc1sc2ncnc(NCC(O)c3ccc([N+](=O)[O-])cc3)c2c1C (stereo not given) | -17% | . | . | ? | ? | -2% | ? | 9%
CN(C)c1cccc(C(=O)NCCCSc2ccccc2)c1 | 0% | . | . | -16%[46.1 µM] | ? | 14% | 40%[activator] | -4%
CCCn1c(CNc2ccc(Br)cc2)nc2ccccc21 | -113% | -13% | -10% | . | . | -23% | -18% | -8%
COc1ccccc1CN1CC(C(=O)NCc2ccc(N3CCCC3=O)cc2)CCC1=O (stereo not given) | -7% | . | . | . | . | 0% | 3% | -9%
CCn1cc(C(=O)NC(C)C)c(=O)c2cc(F)c(N3CCN(C(=O)c4ccco4)CC3)cc21 | -2% | . | . | 8%[46.1 µM] | -5%[46.1 µM] | 3% | -8% | 2%
COc1cccc(CNC(=O)CCC2CCCN(C(=O)Cc3ccccc3F)C2)c1 (stereo not given) | -5% | . | . | -10% | 1% | 0% | 1% | -8%
Cc1cc(C(=O)Nc2ccc(Cl)cc2)n(-c2ccccc2)n1 | -4% | . | . | -11%[46.1 µM] | -1%[46.1 µM] | -2% | 19% | 3%
Cc1ccc(C(c2c(O)nc3n(c2=O)CCS3)c2c(O)nc3n(c2=O)CCS3)cc1 | 24% | 11% | -1.5% | 5% | ? | 25% | -16% | 4%
N#Cc1nc(COc2ccccc2)oc1N1CCCCC1 | -99% | 2% | 0.8% | . | . | -17% | 26% | 9%
Fc1ccccc1-c1csc(-c2cccnc2)n1 | 1% | . | . | ? | 29%[46.1 µM] | -2% | 63%[activator] | -2%
Cc1ccc(S(=O)(=O)c2ccc(Oc3ccccc3)cc2)cc1 | -7% | -2% | -2.0% | -16% | 6% | -17% | ? | 19%
CC(C)C(=O)OCc1cc(=O)n2nc(C3CCCCC3)sc2n1 | . | 9% | -5.9% | -2%[46.1 µM] | . | . | -3% | .
COc1ccc(C)cc1NC(=O)Nc1ccc(Br)cn1 | -74% | 25µM* | 2.5% | -1% | -19% | 6% | -1% | 4%[3.69 µM]
O=C(N=Nc1c(O)[nH]c2ccccc12)c1cc(-c2ccc(F)cc2)n[nH]1 | . | . | . | 0%[46.1 µM] | 1%[46.1 µM] | 0% | -1% | 2%
O=C(CC(=O)Nc1cccc(Cl)c1Cl)Nc1cccc(Cl)c1Cl | -2% | . | . | . | . | -1% | 32%[activator] | -2%
O=C(CN1CC[n+]2c(-c3cccs3)csc21)c1ccc(-c2ccccc2)cc1 | ? | . | . | ? | ? | 0% | ? | 3%
COc1ccc(CN(C(=O)Cn2nnc3ccccc32)C(C(=O)NC(C)(C)C)c2ccco2)cc1 (stereo not given) | 7% | -3% | 1.1% | 14% | 0%&6% | -1% | 24% | 0%
CC(C)c1csc(CN2CCC(N3CCC(C(=O)N4CCOCC4)CC3)CC2)n1 | -1% | . | . | 2% | 13%[46.1 µM] | 1% | -11% | 7%
O=S(=O)(c1cccs1)N1CN(C2CCCCC2)c2nc3ccccc3nc21 | 2% | . | . | -21% | -12%[46.1 µM] | -3% | 6% | 8%
CC[N+](CC)(CC)CCCCCCCCCC[N+](CC)(CC)CC | 3% | 5% | 6.4% | 17% | 30% | 3% | . | -8%
CCN(CC)CCNC(=O)c1cn(C)c2ccc(S(=O)(=O)N(C)C3CCCCC3)cc2c1=O | 0% | -9% | 6.1% | . | . | -2% | -5% | -8%
CCn1c(CNC(=O)c2ccco2)nnc1SCC(=O)c1ccc(OC)cc1 | 5% | . | . | . | . | 0% | 9% | 14%
CCC(C)(NC=O)C(=O)Nc1c(C)cccc1C (stereo not given) | 3% | . | . | ? | -1% | 1% | -1% | -3%
Cc1ccc(C)c(CN2CCC(CNC(=O)Nc3ccc(C)c(C)c3)CC2)c1 | -3% | . | . | 4%[46.1 µM] | ? | 0% | -25% | -1%
